Screening results deposited in PubChem BioAssay by several laboratories.
WNV NS2B-NS3 inh: WNV NS2B-NS3 proteinase inhibition. AID 577. z-score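 (tested at a level between 10 and 100 µM)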. WNV NS2B-NS3 protease, fluorogenic substrate Ex360/Em465; hits give low values. actives 0.18% (n = 65,000). P06935;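 active = z-score at -3 or under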;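 also: score is relative to mean and spread of the compound wells of a plate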
Target sequence (P06935 1371-1501 limits assumed): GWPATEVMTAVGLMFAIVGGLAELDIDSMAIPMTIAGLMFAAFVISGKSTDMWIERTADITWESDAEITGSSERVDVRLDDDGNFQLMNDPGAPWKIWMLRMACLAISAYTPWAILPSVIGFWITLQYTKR
Target sequence (P06935 1502-1679 limits assumed): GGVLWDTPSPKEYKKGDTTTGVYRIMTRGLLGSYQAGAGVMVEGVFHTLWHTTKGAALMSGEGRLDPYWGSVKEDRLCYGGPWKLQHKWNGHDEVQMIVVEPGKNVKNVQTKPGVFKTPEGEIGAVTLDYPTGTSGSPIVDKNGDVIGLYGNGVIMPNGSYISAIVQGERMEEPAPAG
Hsc70: small molecules displacing fluorescent ligand from Hsc70 – biochemical, fluorescence polarization, primary screen (AID 568) | Hsc70 fluorescence polarization, probe displacement; higher % means a stronger effect; strong numbers were not always called active | displacement, % at 20 µM; hits with a dose series show IC50 in µM | 83,000 tested, under 10 active;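 active = displacement above 50% without optical interference and an IC50 on retest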;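 also: ATPase domain with a fluorescein-tagged ATP probe; 0% = vehicle and 100% = excess ADP; read after one hour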
MT1-MMP reporter: MT1-MMP gene expression reporter suppression – cell-based, luciferase reporter, luminescence (AID 618); MT1-MMP promoter luciferase reporter cells, luminescence; calls from a first round at 10 µM; hits with a dose series show EC50 in µM; actives 0.62% (n = 87,000);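 active = over half of the reporter light lost at 10 µM or EC50 under 50 µM; inactive = the rest and hits that failed the dose series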;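 also: actives suppress MT1-MMP promoter-driven transcription so potencies describe inhibitors; HT1080 fibrosarcoma cells; overnight exposure; toxic or luciferase-blocking compounds were not removed from the actives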
* hit, by the source's call; i = inactive; nt = not tested or not shown. Some of the compounds tested; rates above refer to the full screens.

SMILES	WNV NS2B-NS3 inh	Hsc70	MT1-MMP reporter
Cc1[nH]c2ccccc2c1NC(=O)CN1CCN(c2cccc(C(F)(F)F)c2)CC1	-0.3	0.5%	i
Cc1ccc(-n2nnnc2SCC(=O)N2CCN(C(=O)c3ccco3)CC2)c(C)c1	1.3	2.4%	i
CSc1ccccc1NC(=O)CN(c1ccccc1)S(=O)(=O)N(C)C	-0.5	-8.9%	i
Cn1c(Oc2ccccc2NCc2cccc(Br)c2)cc(=O)n(C)c1=O	nt	2.5%	i
CCOC(=O)C1=C(C)N=C2SCCC(=O)N2[C@@H]1/C=C/c1ccccc1	nt	-4.2%	i
COc1cc2nc(SCC(=O)NCc3ccco3)n(Cc3ccc(Cl)cc3)c(=O)c2cc1OC	-0.14	-3.6%	i
CC(C)OCCCNC(=O)C1CCC(=O)N1C(C)C (stereo unspecified)	-1.2	-2.0%	i
CCc1ccccc1NC(=O)C1CCCN(S(=O)(=O)c2c(C)noc2C)C1 (stereo unspecified)	-0.33	-4.0%	i
COC(=O)c1cccc(N2C(=O)c3ccccc3S2(=O)=O)c1	0.3	-2.9%	i
O=C(c1ccco1)N1CCN(C(=O)c2sccc2-c2ccccc2)CC1	-0.25	-0.3%	i
CCOc1ccccc1N1CCN(C(=O)C2c3ccccc3Oc3ccccc32)CC1	nt	-1.1%	i
O=C(O)c1cc2nc(C3CC3)cc(C(F)(F)F)n2n1	-0.08	0.7%	i
C1CCC(n2nnnc2CN2CCN(C3CCCC3)CC2)CC1	0.23	7.4%	i
Cc1ccc(-n2nc3c(c2NC(=O)c2c(-c4ccccc4Cl)noc2C)CSC3)cc1	-1.4	-1.6%	i
O=C(C1CCN(CC2CCCCC2)CC1)N1CCCC1	-0.54	4.7%	i
CC(=O)Nc1ccc(S(=O)(=O)Nc2cccc(C(=O)NC(C)(C)C)c2)cc1	2.1	-2.2%	i
FC(F)(F)c1nnc2sc(-c3ccncc3)nn12	0.8	-5.3%	i
NC1=NC2(CCC(c3ccccc3)CC2)n2c(nc3ccccc32)N1 (stereo unspecified)	0.35	-0.7%	i
CC1CCCCN1CCNC(=O)c1cnn2ccccc12 (stereo unspecified)	0.01	5.0%	i
CC1CCC(NC(=O)CC(C)(C)Cc2nc3ccccc3c(=O)[nH]2)CC1 (stereo unspecified)	nt	3.1%	i
CC1=C(C(=O)Nc2ccc(Cl)cc2)C(c2cccs2)n2nnnc2N1 (stereo unspecified)	1.9	-6.0%	i
O=C(CSc1nnc(-c2cccs2)o1)N1CCc2ccccc21	-0.56	5.8%	i
COc1ccc(Br)cc1/C(C)=N/NC1=NCCN1	nt	4.6%	i
COc1ccc(C2CC(=O)C3=C(C2)NC(C)=C(C#N)C3c2ccc(N(C)C)cc2)cc1 (stereo unspecified)	-0.42	-1.0%	i
CCc1ccccc1NC1c2ccccc2C(=O)N1c1cccnc1 (stereo unspecified)	0.0015	-5.6%	i
O=C(CCS(=O)(=O)c1cc(Br)cc2c1N(C(=O)C1CC1)CC2)NCc1ccco1	-0.46	0.8%	i
Cc1cccc(-n2ncc3c(N(CCO)CCO)ncnc32)c1	-0.11	-2.8%	i
Cc1c(C(=O)Nc2cccc(C(F)(F)F)c2)oc2ccc(S(=O)(=O)N3CCOCC3)cc12	-0.04	-0.9%	i
CC(C)c1cc(C(=O)Nc2cc(Cl)ccc2O)no1	-0.09	-7.5%	i
c1cncc(-c2nnc(-c3cccnc3)nn2)c1	0.36	6.8%	i
O=S(=O)(Nc1ccc(Oc2ncccn2)c(Cl)c1)c1ccc(Cl)cc1	nt	0.3%	i
O=C(CN1C(=O)NC2(CCCC2)C1=O)NCCC1=CCCCC1	nt	3.5%	i
Cc1cc(C)nc(NC(=O)C(C)N2C(=O)c3ccccc3C2=O)n1 (stereo unspecified)	0.4	3.4%	i
CCCCS(=O)(=O)Nc1ccc2c(c1)ncn2C1CCCCC1	-0.15	0.3%	i
Cc1nnc(SCC(=O)NCc2cccs2)[nH]c1=O	-0.16	3.3%	i
Cc1ccc(OC(=O)NC2CCS(=O)(=O)C2)cc1C (stereo unspecified)	-0.08	2.7%	i
CCC(=O)n1nc(-c2ccc(Cl)cc2)nc1SC	nt	0.6%	i
Cc1ccc(CC(=O)OCC(=O)NC2CCCC(C)C2C)cc1C (stereo unspecified)	nt	-1.1%	i
CC(C)OC(=O)c1cccnc1SCC(=O)N(C)c1ccccc1	nt	-5.6%	i
Cc1nccc(-c2ccc(-n3cnc4ccccc43)cc2)n1	nt	3.5%	i
Cc1ccccc1-c1nc2ccccc2[nH]1	nt	4.2%	i
CC(=O)N=c1sc2cc(C)ccc2n1C	-0.13	-0.7%	i
CCn1cc(C2=NC(c3ccccc3)CO2)c2ccccc21 (stereo unspecified)	-0.01	1.9%	i
CCOc1ccc(NC(=O)CN2CCN(CC(=O)Nc3ccc(C(=O)OC)cc3)CC2)cc1	0.42	-0.6%	i
Cc1cc(Nc2cccc(C)c2C)n2ncnc2n1	-0.71	0.2%	i
O=C(c1cc2ccccn2n1)N1CCN(c2cccc(C(F)(F)F)c2)CC1	1.3	-1.8%	i
O=C(C1CCCCN1S(=O)(=O)c1ccccc1)N1CCN(Cc2ccccc2)CC1 (stereo unspecified)	nt	-4.0%	i
CCn1c(SCC(=O)c2ccccc2)nnc1-c1ccoc1C	0.2	-4.9%	i
CC(C)Cc1nc2oc3c(NCCCN4CCOCC4)ncnc3c2c2c1CCC2	nt	10%	i
CC1=C(C(N)=O)C(c2cccc(O)c2)n2nc(CCCO)nc2N1 (stereo unspecified)	0.67	0.9%	i
COc1ccccc1C1N(c2ccc(F)cc2)C(=O)C2CCCN21 (stereo unspecified)	-0.39	2.6%	i
COCCN1CN=C(Nc2nc3ccccc3s2)NC1	-1.6	4.3%	i
CCOC(=O)CSC1=C(C#N)C(c2ccc3c(c2)OCO3)CC(=O)N1 (stereo unspecified)	0.08	-3.2%	i
COc1ccc(C(=O)N2CC3(C)CC2CC(C)(C)C3)cc1OC (stereo unspecified)	nt	6.1%	i
O=C(Cn1c(=O)n(Cc2ccco2)c(=O)c2c3c(sc21)CCCCC3)c1ccccc1	nt	-8.8%	i
CCCN1Cc2cccc(C(=O)NCc3cccs3)c2C1=O	-0.02	0.2%	i
O=S(=O)(NC1CCCC1)c1ccccc1Cl	-0.53	0.2%	i
CCOc1ccc(-c2nc(C#N)c(N3CCOCC3)o2)cc1	-0.7	5.2%	i
CCN(CC)CCNC(=O)c1ccccn1	0.6	4.6%	i
Cn1c(SCc2nnc3n2CCCCC3)nc2ccccc21	0.74	3.6%	i

2 of the compounds above, with each value named.
COc1ccc(C(=O)N2CC3(C)CC2CC(C)(C)C3)cc1OC (stereo unspecified)
- WNV NS2B-NS3 inh = nt
- Hsc70 = 6.1%
- MT1-MMP reporter = i

CCCN1Cc2cccc(C(=O)NCc3cccs3)c2C1=O
- WNV NS2B-NS3 inh = -0.02
- Hsc70 = 0.2%
- MT1-MMP reporter = i

Later entries
SMILES	WNV NS2B-NS3 inh	Hsc70	MT1-MMP reporter
CC(C)CC(NC(=O)OC(C)(C)C)C(=O)NC(C(=O)NC(C)C(N)=O)C(C)C (stereo unspecified)	-0.38	-4.8%	i
CCCCC1CCC(c2nc(-c3cccnc3)no2)CC1 (stereo unspecified)	2.5	4.2%	i
C=C1CSc2nc(=O)c3c4c(sc3n21)CCC4	-1	1.1%	i
Cc1ccc(Nc2nc(C(=O)NCc3ccco3)cs2)cc1	0.11	-0.9%	i
COc1ccc(Cl)cc1S(=O)(=O)N1CCN(Cc2ccc3c(c2)OCO3)CC1	-1.3	5.6%	i
CCN(CC)Cc1c(O)ccc2c(C)c(CC(=O)OC)c(=O)oc12	11	2.1%	i
O=c1c2ccccc2oc2nc3n(c(=O)c12)CCCS3	1.2	2.0%	i
CCOC(=O)C(Oc1ccc(=O)n(-c2ccccc2)n1)C(C)=O (stereo unspecified)	-0.73	5.5%	i
Nc1c(C(=O)NCc2ccccc2)nnn1Cc1cccc(Cl)c1	-0.3	4.9%	i
COc1cc(NC(=O)c2ccc3c(c2)OCO3)ccc1NC(=O)C(C)C	-0.23	-5.8%	i
O=C(NC1CC2CCCC(C1)N2Cc1ccco1)NC12CC3CC(CC(C3)C1)C2 (stereo unspecified)	-0.46	-0.2%	i
CN(CC(=O)NCc1cccs1)S(=O)(=O)c1cccc2nsnc12	-0.3	2.4%	i
COc1ccc(CNC(=O)Cn2nc(C(F)(F)F)c3c2CCC3)cc1	-0.25	4.9%	i
CCSc1ncnc2c(C#N)c3n(c12)CCCCC3	0.76	-6.5%	i
COc1ccccc1N1CCN(CC(O)COc2ccc3c(c2)CCC3)CC1 (stereo unspecified)	nt	0.8%	i

Three compounds picked at random from the list so far, as already listed:
SMILES	WNV NS2B-NS3 inh	Hsc70	MT1-MMP reporter
CN(CC(=O)NCc1cccs1)S(=O)(=O)c1cccc2nsnc12	-0.3	2.4%	i
O=C(NC1CC2CCCC(C1)N2Cc1ccco1)NC12CC3CC(CC(C3)C1)C2 (stereo unspecified)	-0.46	-0.2%	i
COc1ccccc1N1CCN(CC(O)COc2ccc3c(c2)CCC3)CC1 (stereo unspecified)	nt	0.8%	i

(listing goes on)
SMILES	WNV NS2B-NS3 inh	Hsc70	MT1-MMP reporter
COc1cc(NS(=O)(=O)c2ccc(NC(=O)COc3ccc(C)cc3)cc2)nc(OC)n1	-0.79	4.2%	i
COC(=O)C1=C(C)NC(=O)CC1c1cccc(OC)c1OC (stereo unspecified)	-0.31	4.4%	i
CC1CCCC(NC(=O)c2ccc3c(=O)n(CC4CCCO4)c(=O)[nH]c3c2)C1C (stereo unspecified)	-1.5	-5.4%	i
COC(=O)c1ccccc1S(=O)(=O)N(Cc1ccco1)Cc1cc2cc(OC)ccc2[nH]c1=O	0.51	-2.1%	i
Cc1cc(C(=O)Nc2cccnc2)cs1	-1	1.0%	i
S=C(Nc1ccccc1)N1CCn2c1nc1ccccc12	nt	-0.4%	i
CCOC(=O)c1nnn(-c2nonc2N)c1CN1CCc2ccccc2C1	0.27	-1.2%	i
CC1CCN(C(=O)c2ccc(NS(C)(=O)=O)cc2)CC1	0.77	4.0%	i
CC(C)(C)C1CCc2[nH]c3ccccc3c(=O)c2C1 (stereo unspecified)	-0.46	2.6%	i
Cc1c(NC(=O)C(CC(=O)O)NCc2ccco2)c(=O)n(-c2ccccc2)n1C (stereo unspecified)	-0.11	5.6%	i
C=CCOC(=O)C1=C(C)NC(=O)NC1/C=C/c1ccccc1 (stereo unspecified)	0.97	-1.0%	i
CC(=O)c1ccc(NC(=O)CCNS(=O)(=O)c2cccc3nonc23)cc1	-0.14	-2.6%	i
CCn1c(-c2ccc(Cl)cc2)n[nH]c1=S	nt	6.8%	i
CCN(CC)C(=O)c1sc(N)c(C#N)c1C	-0.25	8.3%	i
COc1ccc(C(=O)CSc2nnc(CNC(=O)c3ccc(OC)cc3)n2C)cc1	-1.7	9.8%	i
COc1cc(-c2nnc3sc(-c4cccs4)nn23)cc(OC)c1OC	-0.16	2.0%	i
CN1CCN(c2nc3c(c(=O)n(C)c(=O)n3C)n2CCSc2nc3ccccc3s2)CC1	0.15	1.1%	i
CC(=O)NC1(NC(C)=O)CCN(C)C(c2ccccc2)C1C (stereo unspecified)	-0.41	1.0%	i
O=C(NCc1ccccc1)C(Cc1ccccc1)NS(=O)(=O)c1cccc2nsnc12 (stereo unspecified)	nt	-1.4%	i
CCN(CC)S(=O)(=O)c1ccc2c(c1)c(=O)c(C(=O)N1CCc3ccccc3C1)cn2C	0.95	8.9%	i
Cc1cc(NC(=O)c2cccc(S(=O)(=O)N3CCCCCC3)c2)no1	nt	5.7%	i
CC(=O)c1c(C)[nH]c(C(=O)N2CCc3ccccc3C2)c1C	1.2	3.9%	i
O=C(Nc1ccc2c(c1)oc1ccccc12)c1ccc2c(c1)OCO2	0.09	-11%	i
CC(C)Cc1cc(C(=O)Nc2cc(Br)ccc2O)no1	-0.73	-2.9%	i
CC1CCCC(C)N1C(=O)CSc1nc2ccccc2s1 (stereo unspecified)	nt	1.2%	i
CC(C)CCOc1cccc(OCC(=O)NC2CCS(=O)(=O)C2)c1 (stereo unspecified)	0.42	-2.7%	i
CC1(C)Cc2c(sc3c2C2=NCCN2C=N3)CS1	0.12	-1.4%	i
CCN(CC)c1ccc(NC(=O)CSc2nnc3nc(C)cc(C)n23)cc1	nt	2.6%	i
N#CC1=C(SCC(=O)Nc2ccccc2)NC(=O)CC1c1ccc(O)cc1 (stereo unspecified)	-0.05	-1.2%	i
Nc1nc(NCc2cccs2)nn1-c1ccccc1	0.96	10%	i
COc1ccc(C(=O)c2coc3ccc(O)c(CN4CCCC4)c23)cc1	0.15	8.0%	i
Cc1cc(C)c(C)c(S(=O)(=O)NCc2ccco2)c1C	0.1	7.9%	i
CCOC(=O)c1c(C)[nH]c(C(=O)CSc2nc3ccccc3o2)c1C	-0.52	-1.1%	i

Whole records from above. Order of values: WNV NS2B-NS3 inh, Hsc70, MT1-MMP reporter
`N#CC1=C(SCC(=O)Nc2ccccc2)NC(=O)CC1c1ccc(O)cc1` (stereo unspecified) is listed as -0.05, -1.2%, i
`CC(C)CCOc1cccc(OCC(=O)NC2CCS(=O)(=O)C2)c1` (stereo unspecified) is listed as 0.42, -2.7%, i
`CC(=O)c1c(C)[nH]c(C(=O)N2CCc3ccccc3C2)c1C` is listed as 1.2, 3.9%, i
`Cc1cc(C)c(C)c(S(=O)(=O)NCc2ccco2)c1C` is listed as 0.1, 7.9%, i
`CCN(CC)S(=O)(=O)c1ccc2c(c1)c(=O)c(C(=O)N1CCc3ccccc3C1)cn2C` is listed as 0.95, 8.9%, i
